Compound activity: PubChem, National Center for Advancing Translational Sciences (NCATS)
Six1-Eya2 inh = blocks human Six1 binding to Eya2; AlphaScreen GST-Six1/His-Eya2 binding, biochemical; stronger effect = lower value; control for the full effect not named in the record; activity change, % (no concentration beside the values); actives 0.56% (n = 360,000); Q15475+O00167; AID 651725; in the data active = activity change below about -65%; inconclusive = about -30% to -65%; inactive = above about -30%; note: % is set by controls: 0 for no effect and ±100 for the full control effect; compound concentration not given in the record
Target sequence (O00167 whole entry, looked up): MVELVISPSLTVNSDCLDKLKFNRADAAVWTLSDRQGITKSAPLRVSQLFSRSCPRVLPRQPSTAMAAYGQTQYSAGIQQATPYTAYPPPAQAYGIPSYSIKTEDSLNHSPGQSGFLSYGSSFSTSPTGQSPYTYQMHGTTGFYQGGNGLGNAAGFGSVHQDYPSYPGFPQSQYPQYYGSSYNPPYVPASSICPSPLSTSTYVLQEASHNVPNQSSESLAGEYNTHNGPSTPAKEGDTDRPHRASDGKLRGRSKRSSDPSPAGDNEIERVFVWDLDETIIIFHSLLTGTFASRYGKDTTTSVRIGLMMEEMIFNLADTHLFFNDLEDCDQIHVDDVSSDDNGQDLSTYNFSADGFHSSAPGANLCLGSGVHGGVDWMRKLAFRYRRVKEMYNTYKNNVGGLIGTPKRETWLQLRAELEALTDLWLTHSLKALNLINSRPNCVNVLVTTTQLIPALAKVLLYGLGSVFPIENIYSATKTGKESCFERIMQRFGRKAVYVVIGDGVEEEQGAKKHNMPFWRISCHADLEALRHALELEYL
Target sequence (Q15475 whole entry, looked up): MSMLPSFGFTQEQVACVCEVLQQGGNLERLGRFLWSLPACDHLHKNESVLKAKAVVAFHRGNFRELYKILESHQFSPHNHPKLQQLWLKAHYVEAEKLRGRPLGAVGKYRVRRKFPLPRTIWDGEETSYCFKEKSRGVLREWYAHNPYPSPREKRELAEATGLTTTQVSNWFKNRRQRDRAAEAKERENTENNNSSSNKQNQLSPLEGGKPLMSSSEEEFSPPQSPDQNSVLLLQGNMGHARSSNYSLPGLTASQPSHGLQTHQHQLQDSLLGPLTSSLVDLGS
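AlphaScreen with GST-Six1 and His-Eya2 (5X mix: 250 nM and 500 nM), glutathione donor and nickel acceptor beads; buffer 50 mM Tris pH 8.0, 300 mM NaCl, 1 mM TCEP; 1 h at 37 C in the dark.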
D2 agonist = human D2 receptor agonism in beta-arrestin assay; AID 624465; activation, % (concentration not given with the values); P14416; DiscoveRx PathHunter D2 beta-arrestin, luminescence, 90 min; 100% = 57 uM dopamine signal; actives 0.084% (n = 360,000); in the data active = activation above about 40%; inconclusive = about 15% to 40%; inactive = below about 15%; note: compound concentration not given in the record; the text of the record calls up to 30% inactive
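Agonist mode: compounds alone added to overnight-plated D2 PathHunter cells for 90 min at 37 C, with 57 uM final dopamine (EC100) defining full response. Beta-arrestin recruitment detected by chemiluminescent reagent, read after 1 h at ambient temperature.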
CtBP-E1A inh = inhibitors of CtBP/E1A interaction; AlphaScreen GST-E1A/His-CtBP binding, 1536-well; stronger effect = lower value; control for the full effect not named in the record; activity change, % (test concentration not listed); actives 0.49% (n = 340,000); in the data active means activity change below about -65%; inconclusive means about -30% to -65%; inactive means above about -30%; note: % is set by controls: 0 for no effect and ±100 for the full control effect; compound concentration not given in the record
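Homogeneous bead-based format: GST-tagged E1A captured on glutathione donor beads, His-tagged CtBP on nickel acceptor beads; compounds precede bead addition by 2 h at 37 °C.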
TRPML1 ag = human mucolipin-1 channel agonism | Q9GZU1 | TRPML1-expressing cells, Ca2+ dye fluorescence, FDSS; host cell line not named in the record; reference of the full effect not given here | activation, % (no concentration beside the values) | actives 0.12% (n = 410,000) | AID 624414; in the data active = activation above about 50%; inconclusive = about 30% to 50%; inactive = below about 30%; note: 0% is about no effect; the text of the record puts the active cut at 80%
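Tetracycline-induced TRPML1-DL cells are seeded and incubated overnight before loading with a no-wash Ca2+ dye and quencher. Agonist activity is taken from the 110 s fluorescence read following compound pin-transfer on an FDSS, before EC80 54-4 challenge.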
D2 potentiator = human D2 receptor positive allosteric modulation; actives 0.23% (n = 360,000); DiscoveRx D2 beta-arrestin cells, luminescence, 90 min; 100% = 57 uM dopamine signal; AID 624464; P14416; potentiation, % (concentration not given with the values); active = potentiation of 50% or more; inconclusive = 30% to 50%; inactive = 30% or less;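 note: compound concentration not given in the record; tested on top of an EC20 dose of dopamine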
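PathHunter beta-arrestin assay in DiscoveRx D2 cells. Compounds were added with an EC20 of dopamine (50 nM final) for 90 min at 37 deg C. Luminescence was read 1 h after detection reagent, with 57 uM dopamine as the EC100 control.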
PINK1 expr mod = modulators of PINK1 expression; AID 624263; actives 0.2% (n = 410,000); Potency, µM (highest dose often 76.6 µM), without a hit: top-dose activation (PINK1 increase), hits mostly activators; PINK1 immunofluorescence, high-content cytometry, 24 h; active = well fitted activation curve with a large enough effect; inconclusive = small, poorly fitted or top-dose-only effect; inactive = flat fitted curve, though single readings scatter; cell line not stated here;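 note: potency is the fitted concentration of half-maximal effect; % of control where 0% means no effect; nearly all actives have a fitted effect of over 65% in size; a mitochondrial uncoupler was the plate control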
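Measures PINK1 amount and localization on or inside mitochondria by immunofluorescence. Stable cells get compounds at 5 concentrations for 24 hours before fixation and staining; CCCP controls included.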
An asterisk follows results filed as active; ? = inconclusive; nt = no result given; & = joins results of further samples; [ ] = another dose, or the depositor's remark.

Molecule,Six1-Eya2 inh,CtBP-E1A inh,D2 potentiator,PINK1 expr mod,TRPML1 ag,D2 agonist
CC(=O)c1ccc(Nc2c3c(nc4ccccc24)CCCC3)cc1,-3,nt,-17,2.7%,2.2,-14
CCCCCNc1ncnc2c(C)[nH]nc12,2,6,-4,2.0%,-0.7,-4.3
Cc1ccc(NC(=S)NCC23C=CC(O2)C2C(=O)N(c4ccc(C)cc4)C(=O)C23)cc1 (configuration not stated),-17,1,-4,0.1%,1.5,0.5
N=c1sccn1CC(=O)Nc1ccc(SC(F)F)cc1,-15,-11,-16,-0.5%,1.4,-4.7
Cc1ccc(S(=O)(=O)NCCC(=O)OCn2nnc3ccccc3c2=O)cc1,-2,-3,-9,-0.4%,1.0,-1.7
COc1ccc(C2C(C(C)=O)=C(O)C(=O)N2CCc2c[nH]c3ccccc23)cc1OC (configuration not stated),-5,0,5,1.9%,0.0,-3.1
Cc1ccc(Nc2nc(N)nc(COC(=O)c3ccc(Br)o3)n2)cc1,-5,-2,-3,3.3%,0.3,-5.6
COc1ccc2nc(SCC(=O)Nc3ccc(S(=O)(=O)Nc4nccc(C)n4)cc3)[nH]c2c1,-20,?,4,-3.6%,0.7,1.0
CCCOc1ccc(S(=O)(=O)n2cc(F)c(=O)[nH]c2=O)cc1,-1,4,6,-0.9%,0.2,-1.5
Cc1ccc(CN2C(=O)c3ccccc3NC23CCN(Cc2ccccc2)CC3)cc1,0,4,-11,1.4%,-1.3,-2.1
COc1ccc(CNC(=O)c2cccc(S(=O)(=O)N3CCN(C)CC3)c2)cc1,-11,nt,0,0.1%,0.8,-0.2
Fc1ccc2nc(C3CCN(Cc4nc(CC5CC5)no4)CC3)[nH]c2c1,4,8,-10,1.2%,0.3,-2.3

More results follow.
Molecule,Six1-Eya2 inh,CtBP-E1A inh,D2 potentiator,PINK1 expr mod,TRPML1 ag,D2 agonist
CC(Sc1n[nH]c(-c2ccccc2F)n1)C(=O)Nc1ccc(S(N)(=O)=O)cc1 (configuration not stated),-2,7,-17,-0.9%,0.0,-3.2
CCN1CCN(C(=O)CCn2c(=O)c3cccn3c3cccnc32)CC1,-3,3,-11,1.2%,0.9,0.1
CSc1nc(-c2ccc(Cl)cc2)nc(N)c1C#N,10,5,-8,7.8%,0.4,-0.6
CCN(C(=O)C(C)N1C(=O)/C(=C/c2ccco2)SC1=S)C1CCS(=O)(=O)C1 (configuration not stated),-21,131,-6,-0.5%,-0.1,15
CCOc1ccc(CCNC(=O)CS(=O)Cc2nc(-c3ccccc3Cl)oc2C)cc1OCC (configuration not stated),0,-1,-7,-0.3%,-1.3,2.0
CC(C(=O)N(C)C1CCS(=O)(=O)C1)N1C(=O)/C(=C/c2ccc(F)cc2)SC1=S (configuration not stated),-14,0,-6,5.0%,0.4,1.3
CC1(CCc2ccc(O)cc2)NC(=O)NC1=O (configuration not stated),-2,5,4,-0.5%,0.8,-0.1
O=C(NCCSC1CCCCC1)c1ccccc1,9,3,-6,-1.4%,-0.4,-6.0
O=C(CCN1C(=O)/C(=C/c2ccc3c(c2)OCO3)SC1=S)Nc1cccc(C(=O)O)c1,-10,0,-1,5.1%,-0.3,-1.6
Cc1ccc(S(=O)(=O)NNC(=S)NCCc2ccccc2)cc1,-3,nt,-20,3.8%,-0.7,-7.8
O=C1C(Cl)=C(NCCN2CCOCC2)C(=O)c2ccccc21,-21,-28,11,0.7%,1.3,4.8
COC(=O)C1=C[C@@H](C(=O)OC)C2C3=C(C(=O)C24CCCCC4)[C@H](C)n2c(=O)n(-c4ccccc4)c(=O)n2[C@@H]3C1 (some centres not stated),4,1,9,1.0%,3.4&0.5,2.1

Remaining list, next part.
Molecule,Six1-Eya2 inh,CtBP-E1A inh,D2 potentiator,PINK1 expr mod,TRPML1 ag,D2 agonist
CCOc1ccc(NC(=O)CSc2nnc(-c3ccccn3)n2N)cc1,-29,?,11,0.8%,-0.6,2.9
COc1ccc(C(=O)NC(=S)N2CCCCC2)cc1,-3,-19,4,11%[38.3 µM],-0.2,-1.6
Cc1nc2c(-c3ccc(Cl)cc3)c(C)[nH]n2c(=O)c1Cc1ccccc1,-76*,-82*,-16,35µM*,0.4,2.2
Cn1c(=O)oc2cc(S(=O)(=O)N3CCc4ccccc43)ccc21,-1,5,2,12%,nt,-5.0
O=C(OCCN1C(=O)c2ccccc2C1=O)C1CC(O)CN1S(=O)(=O)c1ccc(Cl)cc1 (configuration not stated),-2,6,3,0.4%,-0.4,0.9
CCN(CC(=O)Nc1c(F)cccc1F)C(=O)CN(C)S(=O)(=O)c1ccc(F)cc1,10,-9,-11,-1.2%,-0.6,0.4
N#C/C=C1\n2c(nc3ccccc32)OC12CCCCC2,3,-2,-9,-1.2%,-1.0,-2.1
COc1ccccc1NS(=O)(=O)c1cc(NC(=O)CNC(=O)c2ccccc2)ccc1C,?,?,-4,0.6%,0.2,1.4
Cc1ccc2c(c1)C(=O)CC(O)(C(F)F)O2 (configuration not stated),11,5,-1,-1.3%,4.2,-4.3
Cc1[nH]cnc1CSCc1ccc(F)cc1,9,-16,-6,?,1.5,1.0
CCOc1c2ccc(C(=O)NCc3ccc4c(c3)OCO4)cc2nn1C,5,5,-8,-0.3%,-0.3,-3.6
Cc1cc(C)n(CC(=O)n2c3ccccc3c3ccccc32)n1,1,-1,-9,9.5%,-1.1,-2.9

More records follow.
Molecule,Six1-Eya2 inh,CtBP-E1A inh,D2 potentiator,PINK1 expr mod,TRPML1 ag,D2 agonist
COCCNC(C(=O)Nc1ccc(C)cc1[N+](=O)[O-])c1ccccc1 (configuration not stated),-2,-4,3,1.7%,1.0,3.2
CC(N)C12CC3CC(CC(C3)C1)C2 (configuration not stated),10&6,1&-6,-4&-4,-0.5%&0.5%,-0.1&2.7,-6.9&0.5
OC(COc1ccc(Cl)c2ccccc12)CN1CCN(c2ccccn2)CC1 (configuration not stated),-11,-14,-24,1.5%,1.0,4.7
COc1ccc(C[C@H]2CN3C(=NC[C@H]3C)N2CCNC(=O)CCC2CCCCC2)cc1,8,-6,-25,0.2%,0.2,-4.3
CCCC(=O)Nc1cc2c3c(c1)CCN3C(=O)CC2,-2,-8,-9,-1.2%,-0.2,-5.0
Cc1c(C(=O)C(=O)N2CCCc3ccccc32)c2ccccc2n1C,1,-3,12,7.2%,0.0,-6.2
c1ccc(-c2nc(-c3cccs3)[nH]c2-c2ccccc2)cc1,-3,0,-19,4.7%[38.3 µM],0.2,-0.7
COc1cc(NC(=O)c2cccs2)c(C(=O)OCC(=O)NC(=O)NCc2ccccc2)cc1OC,-1,-1,-5,3.0%,0.2,-1.6
CC(C)c1c(C(=O)N/N=C/C=C/c2ccccc2)nnn1-c1nonc1N,-3,nt,-2,8.0%,3.7,-3.5
O=C(O)c1ccc(-n2nnnc2SCc2cccc(Br)c2)cc1,-7,-18,3,-0.3%,-0.8,-1.2
COC(=O)C1=C(C)N(CC2CC2)C(=O)N[C@H]1c1ccccc1,19,0,-2,-0.4%,0.3,0.1
COc1ccc(OCc2nc(N)nc(Nc3cccc(C)c3C)n2)cc1,8,16,30,-0.8%,-0.4,-1.6

Some of the entries above, reformatted.
Values in the order – Six1-Eya2 inh, CtBP-E1A inh, D2 potentiator, PINK1 expr mod, TRPML1 ag, D2 agonist
> O=C(O)c1ccc(-n2nnnc2SCc2cccc(Br)c2)cc1
→ -7, -18, 3, -0.3%, -0.8, -1.2
> COC(=O)C1=C(C)N(CC2CC2)C(=O)N[C@H]1c1ccccc1
→ 19, 0, -2, -0.4%, 0.3, 0.1

Following part
Molecule,Six1-Eya2 inh,CtBP-E1A inh,D2 potentiator,PINK1 expr mod,TRPML1 ag,D2 agonist
COc1ccc(OCC(=O)Nc2ccc3nc(C)sc3c2)cc1,-2,5,1,0.5%,1.7,3.2
C=CCOc1c(Br)cc(CNn2nnnc2N)cc1OCC,-9,-3,-11,0.4%,1.9,1.7
Cc1ccc(CNC(=O)c2ccc3c(=O)n4c(-c5ccc(C)cc5)csc4nc3c2)cc1,12,-6,-3,2.1%,-1.0,-1.2
O=C(NCc1ccccn1)c1ccco1,2,13,1,0.3%,1.0,-1.2
O=C(Nn1cnnc1)c1ccc(Cl)cc1,-1,nt,24,0.9%,nt,0.6
O=C(Nc1nnc(-c2ccco2)o1)C1CCCCC1,-14,-9,-8,1.5%,-0.6,-0.9
COc1ccccc1-c1nnc2sc(C3CCCCC3)nn12,-1,0,-12,4.1%[38.3 µM],0.0,0.7
CN(C(=O)c1ccc(NC(=O)Cc2ccc(NC(=O)C3CCCN(C(=O)c4ccccc4)C3)cc2)cc1)C1CC1 (configuration not stated),-7,3,-7,-0.1%,-0.8,-1.3
CC(=O)C1=C(C)N(Cc2ccccc2)C(=O)N[C@H]1c1cccc(C(F)(F)F)c1,0,5,2,-0.1%,0.1,-6.0
c1ccc2nc(-c3ccc(N4CCOCC4)cc3)ccc2c1,3,4,-4,9.1%,-0.4,-4.5
O=C(COCc1cc(-c2ccc3c(c2)OCO3)on1)Nc1cccnc1Cl,-1,-7,-5,4.2%,-1.3,-6.8
COc1ccc(C)cc1NC(=O)CO/N=C(\N)CC(=O)NC1CCCCC1,5,-3,-9,1.8%,0.0,0.9

Next part
Molecule,Six1-Eya2 inh,CtBP-E1A inh,D2 potentiator,PINK1 expr mod,TRPML1 ag,D2 agonist
Cc1cccc(C)c1NC(=O)CNC(=O)c1cn(-c2ccccc2)nc1-c1ccccc1,-5,-3,-12,2.6%,3.1,-1.0
CCC(=O)NC(=S)Nc1cccc(Cl)c1N1CCCCC1,-1,5,-11,22%[38.3 µM],-0.4,-3.3
COc1ccc(/C=C2\N=C(c3ccccc3Cl)NC2=O)cc1,-1,nt,-30,4.5%,0.6,-8.4
COc1ccc(C2C(C(=O)c3ccco3)=C(O)C(=O)N2CCN2CCOCC2)c(OC)c1 (configuration not stated),2,23,4,1.6%,0.0,-3.6
NC(=O)C1CCN(C2OC(=O)c3ccccc32)CC1 (configuration not stated),5,0,10,0.6%,-0.8,-1.2

2 consecutive records already listed:
Molecule,Six1-Eya2 inh,CtBP-E1A inh,D2 potentiator,PINK1 expr mod,TRPML1 ag,D2 agonist
CC(=O)c1ccc(Nc2c3c(nc4ccccc24)CCCC3)cc1,-3,nt,-17,2.7%,2.2,-14
CCCCCNc1ncnc2c(C)[nH]nc12,2,6,-4,2.0%,-0.7,-4.3
